# Assay outcomes as filed in PubChem.
# Yeast UUG start: modulators of yeast start codon fidelity, primary screen, whole organism, S. cerevisiae, single point, plate reader | activity score, % at 18.7 µM | S. cerevisiae UUG-firefly luciferase reporter, luminescence/redox ratio | hit rate 0.13% among 350,000;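 active means replicate mean at a twofold rise or more, about +100% in these data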;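 further: firefly luciferase made from a UUG start codon reports start codon fidelity; reporter light over untreated wells divided by growth signal over untreated wells; some hits fall short of that in this replicate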
# MT1-MMP act inh: blockers of MT1-MMP proenzyme processing, primary screen, HT1080 RFP-PRO-GFP cells, GFP/RFP fluorescence. Matrix metalloproteinase-14 (Homo sapiens), P50281. GFP/RFP ratio fluorescence, overnight; percent of plate control window, DMSO zero. GFP/RFP ratio change, % at 20 µM. hit rate 0.061% among 360,000;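 active means GFP/RFP ratio change of at least 30% with cell ATP level not reduced by more than half and red fluorescence within 50% of control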; further: strong numbers were not always called active
#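 Test system: HT1080 RFP-PRO-GFP cells; Benchmarks: DMSO and RFP-L50D-GFP cell wells; Timing: cells overnight before dosing, compound overnight, 37 °C, 5% CO2; Compound: one 20 µM compound dose with 1% DMSO; Read-out: GFP/RFP fluorescence ratio.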
# HIV Env fusion: inhibitors of HIV-1 Env-driven cell-cell fusion, primary screen, HeLa-JRFL effector, CEM21 target cells, luciferase; hit rate 1.1% among 360,000; AID 651610, 2012; inhibition, % at 12.3 µM;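 active means mean replicate inhibition score of at least 50 and every replicate individually at or above 50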;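 further: 0% = plate neutral controls and 100% = maraviroc near 300 nM; one replicate is shown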
# CSC inhib: cancer stem cell viability inhibitors, primary screen, luminescence | cancer stem cell-like cells viability | inhibition, % at 7.5 µM | hit rate 1.1% among 300,000;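 active means mean at 75% or more and at least half the replicates too; tested in HMLE shEcad cells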;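 further: 0% = median of negative and 100% = median of positive control wells; the first replicate is given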
# eIF4H FP inh: human eIF4H binding inhibitors, primary screen, translation initiation inhibitor project, biochemical, uHTS, fluorescence polarization; AID 2012, 2009; Eukaryotic translation initiation factor 4H (Homo sapiens), Q15056; hit rate 0.94% among 290,000; inhibition, % at 35 µM; eIF4H fluorescence polarization binding assay;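 active means 50% or more with normal probe brightness, or confirmed in later tests; about a fifth of its hits are not listed in these tables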;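 further: calls also rest on retests at 20 µM and on dose response follow-up; 0% = protein and probe with vehicle and 100% = probe without protein; strong numbers were not always called active; many hits fall short of the cut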
# Rce1 inhib: yeast Rce1p protease inhibitors, primary screen, biochemical, fluorescence, cell-free homogeneous; yeast membranes, quenched prenylated peptide cleavage fluorescence; calls only; hit rate 0.27% among 290,000; AID 2563, 2010;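 active means fall in fluorescence gain of 50% or more versus controls, with final raw signal at or below 3038400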;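 further: plate controls were neutral control wells for no effect and wells lacking membranes for full effect; tested at 10 µM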
# PABP FP inh: PABP poly(A) RNA binding inhibitors, primary screen, biochemical, fluorescence polarization, uHTS. Polyadenylate-binding protein 1 (Homo sapiens), P11940. inhibition, % at 35 µM. hit rate 1% among 290,000. AID 2014, 2009;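 active means 50% or more with normal probe brightness, or confirmed in later tests; about a fifth of its hits are not listed in these tables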;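 further: calls also rest on retests at 20 µM and on dose response follow-up; controls were probe without protein and protein plus probe with vehicle; some compounds called inactive have numbers as strong as hits; many hits fall short of the cut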
# Target sequence (P11940 whole entry, looked up): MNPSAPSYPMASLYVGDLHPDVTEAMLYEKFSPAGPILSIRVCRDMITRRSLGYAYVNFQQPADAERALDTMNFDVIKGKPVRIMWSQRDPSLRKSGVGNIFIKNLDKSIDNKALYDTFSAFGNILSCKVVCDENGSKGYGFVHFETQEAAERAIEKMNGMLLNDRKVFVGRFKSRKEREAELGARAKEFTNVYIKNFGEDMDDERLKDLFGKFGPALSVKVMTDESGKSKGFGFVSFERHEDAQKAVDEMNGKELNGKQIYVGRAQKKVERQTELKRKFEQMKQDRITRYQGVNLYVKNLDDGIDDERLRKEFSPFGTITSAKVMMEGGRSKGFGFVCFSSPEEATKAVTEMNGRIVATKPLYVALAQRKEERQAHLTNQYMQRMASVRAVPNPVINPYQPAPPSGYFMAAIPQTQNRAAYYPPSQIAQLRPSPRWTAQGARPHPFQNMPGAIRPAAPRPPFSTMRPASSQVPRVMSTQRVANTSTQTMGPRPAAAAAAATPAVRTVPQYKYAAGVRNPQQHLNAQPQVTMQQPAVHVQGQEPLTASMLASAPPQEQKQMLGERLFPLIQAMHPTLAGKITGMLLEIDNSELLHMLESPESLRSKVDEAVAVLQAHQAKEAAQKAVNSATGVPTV
# eIF4H FP inh retest: second read-out of eIF4H FP inh, no call of its own (marks repeat the call); inhibition, %; compound at 20 µM; confirmation average;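 mean of two retest wells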
# PABP FP inh retest: recorded beside PABP FP inh, whose call it bears; inhibition, %; compound at 20 µM; confirmation repeats;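 mean of two retest wells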
# MT1-MMP act inh RFP: also measured in MT1-MMP act inh; calls as there; RFP signal change, %; measured here: RFP expression control read;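 0 = vehicle wells; hits needed this value within 50% of zero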
# An asterisk follows results filed as active; i = inactive; . = not tested or not shown.
SMILES,Yeast UUG start,MT1-MMP act inh,MT1-MMP act inh RFP,HIV Env fusion,CSC inhib,eIF4H FP inh,Rce1 inhib,PABP FP inh,others
COc1cc(C)c(C(=O)Oc2cc(C)c(C(=O)O)c(O)c2)c(O)c1,-17.7,0.5,2.3,.,-7.0,-3.9,.,6.5,
CCOC(=O)N1CCC(NC(=O)CC2C(=O)NCCN2Cc2ccc(C)cc2)CC1 (configuration not stated),3.0,-3.1,2.2,-2.6,-3.5,4.5,i,-4.1,
COc1ccccc1C(=O)N1CCN(C(=O)[C@H]2O[C@@H](n3ccc(N)nc3=O)[C@H](O)[C@@H]2O)CC1,-11.1,-2.2,3.8,18.5,.,.,.,.,
Cc1c(OCC(=O)NCc2ccncc2)ccc2c3c(c(=O)oc12)CCC3,-13.1,1.9,0.9,-9.7,-16.2,-5.8,i,3.6,
CCOC(=O)CSc1ccc2nnc(-c3ccncc3)n2n1,-9.5,0.5,6.1,-9.8,-7.9,6.6,i,4.3,
Clc1ccc(-c2csc3ncnc(Cl)c23)cc1,.,1.5,0.7,-38.3,-1.7,2.9,i,5.0,
Cc1ccccc1NC(=O)CSc1nnc(-c2ccccn2)o1,-16.8,-0.6,0.7,-18.1,.,-3.8,i,5.8,
FC(F)(F)c1nnc2ccc(N3CCCC3)nn12,-12.5,.,.,.,-17.3,-9.5,i,-13.5,
Cc1ccccc1NC(=O)C1CC(=O)n2ncnc2N1 (configuration not stated),3.6,-1.0,1.0,10.2,-6.2,-2.9,i,2.3,
CC(=O)N1CCN(c2nc3cc4c(cc3nc2NS(=O)(=O)c2ccccc2)OCCO4)CC1,-14.4,1.0,14.5,-13.9,-7.8,54.1,i,34.5,eIF4H FP inh retest=16.1;PABP FP inh retest=35.6
Cc1ccc(O)c(C2=NOC(O)(C(F)(F)F)C2)c1 (configuration not stated),-11.7,1.7,2.8,.,-12.7,7.3,i,15.0,
CCc1ccc(C(O)c2ncc(-c3ccccc3C)[nH]2)cc1 (configuration not stated),-22.1,-2.3,-1.3,-20.1,.,.,.,.,
O=C(CCNC(=O)c1ccc(Br)cc1)Nc1cccc(S(=O)(=O)N2CCCCC2)c1,-11.9,-5.6,-7.1,14.6,-2.9,.,i,.,
CCn1cc(C(=O)NCCN(CC(C)C)CC(C)C)c(=O)c2cc(S(=O)(=O)N3CCOCC3)ccc21,-2.4,-4.4,-2.2,3.4,-4.4,3.1,i,6.5,
Cc1ccc(CC(=O)Nc2nccs2)cc1C,-18.9,-0.4,0.1,-2.5,3.3,3.5,.,5.9,
COc1cc(CO)cc(Br)c1OCc1cccnc1,.,-6.3,-5.6,-20.5,-11.9,-3.4,i,7.6,
C/C(=C\C(=O)c1ccc(Cl)cc1)Nc1ccc(Br)cc1,-2.9,-3.1,0.4,-103.5,29.2,.,i,.,
Cc1cc(C(=O)Nc2ccc3[nH]ccc3c2)no1,-37.7,0.4,0.4,-23.0,-14.5,-1.7,i,8.2,
O=C(CSc1ncn[nH]1)NN(c1ccccc1)c1ccccc1,.,1.7,7.9,-11.5,-13.8,2.4,i,3.0,
CCOc1ccc(C(C)=O)cc1COC(=O)CNC(=O)C12CC3CC(CC(C3)C1)C2,-0.6,3.3,-2.0,.,6.6,.,.,.,
COCCNC(=S)N/N=C1\CC(C)CC(C)(C)C1 (configuration not stated),-32.5,-3.8,-3.7,-2.7,19.0,-3.9,i,4.7,
O=C(NN(c1ccccc1)c1ccccc1)c1ccccc1F,-14.4,-1.2,-0.1,-9.2,5.6,-1.9,i,0.0,
COc1ccc(-c2csc3ncn(-c4ccccc4OC)c(=O)c23)cc1OC,23.3,-7.4,-3.6,5.3,7.0,-0.5,i,-9.9,
Cn1nc(C(=O)NCc2ccco2)c2ccccc2c1=O,.,-4.6,0.0,.,-3.5,-2.0,i,5.9,
Clc1ccc(-c2noc(/C=C/c3ccccc3)n2)cc1,.,1.6,-1.4,-5.2,13.2,-6.8,i,2.1,
Cc1nonc1NC(=O)CSc1nc2ccccc2o1,-16.5,-2.5,3.0,-36.1,.,83.3*,i,72.2*,
CCC(C)N(CCNC(=O)CC1Oc2ccccc2NC1=O)C1CCCCC1 (configuration not stated),-4.5,-2.8,4.4,-11.6,-7.7,-0.8,i,-7.7,
O=C(NCc1ccco1)C1CCCN(c2ncnc3c2nc2n3CCCCC2)C1 (configuration not stated),-4.3,-0.3,3.6,-1.0,-6.3,-4.5,i,-7.1,
CCc1ccccc1NC(=O)CC(=O)Nc1ccccc1CC,1.9,-0.8,-2.1,-2.6,1.2,-10.3,i,2.8,
Cc1ccc(F)cc1NC(=O)c1cccc2nccnc12,-18.1,2.3,1.2,-147.6,.,-4.8,i,-8.8,
CN1N=C(c2ccc(Cl)cc2)CC(c2ccc(Cl)cc2)C1=O (configuration not stated),.,-2.9,-2.5,10.3,3.1,-2.1,i,2.2,
COc1cc(C(=O)N2C(=O)c3cccc(N)c3C2=O)cc(OC)c1OC,.,1.0,0.3,-13.1,-2.2,5.3,i,4.0,
CC(C)=CCCC(C)CN1CCC(n2nccc2NC(=O)c2ccccc2)CC1 (configuration not stated),-3.4,0.0,2.5,6.1,14.6,-5.0,i,7.6,
CCOC(=O)c1c(C)[nH]c(C=C2C(=O)CCCC2=O)c1O,-4.4,-13.2,1.9,.,0.4,130.9,i,101.8,eIF4H FP inh retest=-1.2;PABP FP inh retest=-7.1
CC(C)[C@@H](C(=O)N1CCCC1)N1C(=O)N2CCc3c([nH]c4ccccc34)[C@@]2(C)C1=O,9.4,-0.4,0.5,.,-9.2,-2.0,i,-4.6,
COc1ccccc1C(=O)NCCC(=O)NCC(c1ccccc1)N(C)C (configuration not stated),-12.3,-3.2,0.1,-0.5,4.3,43.3,i,6.2,
CCOc1cc2[nH]c(=S)n(CCCN3CCOCC3)c(=O)c2cc1OCC,-33.2,4.1,-2.1,-3.7,-14.1,5.2,i,11.4,
FC(F)(F)c1ccccc1CNCc1ccc2c(c1)OCO2,-10.8,0.4,-4.1,7.9,-10.8,8.9,i,-0.2,
CC1(C)Cc2c(c(=S)nc(-c3ccccc3)n2CCO)CO1,-21.6,3.2,0.7,.,-11.3,-2.1,i,-2.5,
Cc1ccc(NC(=O)C2CCCN(S(=O)(=O)c3c(C)noc3/C=C/N(C)C)C2)c(C)c1 (configuration not stated),-9.0,-3.1,1.3,7.9,-2.2,7.1,i,-6.0,
O=S(=O)(NCc1ccco1)c1ccc(S(=O)(=O)N2CCCC2)cc1,.,2.3,4.1,6.3,1.6,-5.8,i,3.3,
COc1ccc2cc(-c3ccn[nH]3)ccc2c1,-36.9,3.1,2.8,-6.1,.,-1.3,i,0.5,
CCOC(=O)CNC(=S)N(Cc1ccccc1)Cc1ccccc1F,.,-9.7,-3.6,4.1,-11.6,5.0,i,26.5,
O=C(Cc1ccsc1)OCC(=O)c1ccccc1,0.5,1.9,5.2,-5.7,-6.2,.,.,.,
N/C(=N\OC(=O)C1CCCCC1)c1cccc([N+](=O)[O-])c1,.,5.7,1.1,.,5.0,-1.2,i,-9.1,
CCOc1ccccc1C1CC(=O)NC2=C1C(=O)CCC2 (configuration not stated),-19.3,-1.2,-0.2,.,26.1,-2.3,i,-0.7,
COC(=O)CSc1nnc(CNC(=O)Cc2ccccc2)n1-c1ccccc1OC,.,3.5,0.6,.,-7.4,3.0,.,11.7,
Cn1c(N)c(C(=O)COC(=O)c2ccccn2)c(=O)n(C)c1=O,1.5,-3.9,-0.1,-10.6,2.4,6.5,i,-4.5,
CC(C)C(=O)c1cn(CC(=O)O)c2ccccc12,-19.8,1.9,6.9,13.7,-9.0,7.4,i,5.2,
CC(C)Cc1ccc(C(=O)Nc2ccc(Cc3ccncc3)cc2)o1,-19.9,-1.9,-9.4,17.4,.,-2.0,i,-10.4,
O=C(CN1CCN(Cc2cccc(Cl)c2)C1=O)NCc1cccs1,2.7,0.3,-1.4,13.5,-3.8,1.8,i,-3.2,
CC1(C)CC(=O)c2sc(NC(=O)C3CC3)nc2C1,-12.8,0.0,3.6,-0.9,-19.3,-15.9,i,-8.6,
COC(=O)[C@@]1(C)[C@H]2C(=O)N(C)C(=O)[C@H]2[C@H]2CN=C(SCC(=O)c3ccccc3)N21,-35.1,7.9,8.0,0.8,.,.,.,.,
S=c1[nH]nc(-c2cccnc2)n1/N=C/c1ccccc1,-10.4,3.9,3.1,4.3,11.1,1.1,i,-7.2,
Cc1cccc(OCCOCCN2CCOCC2)c1C,-11.2,-0.5,3.6,3.3,-4.8,-7.3,i,9.8,
C=CCC[C@@H](Cc1ccc(F)cc1)C(=O)OC[C@H](Cc1c[nH]c2ccccc12)NC(=O)[C@@H](CC=C)CC(=O)NCCO,-1.7,-4.2,-6.0,17.0,.,.,.,.,
CC(C)Oc1ccc(C2CC(=O)N(c3cccc(Br)c3)C2=O)cc1 (configuration not stated),-9.2,0.7,1.7,2.6,-11.5,-2.3,i,-9.2,
CC(=O)c1cccc(NC(=O)C2=CC(c3cccs3)=NS(=O)(=O)N2C)c1,8.3,1.1,-2.1,-0.4,-6.8,.,i,.,
O=C(N/N=C\c1cccc(F)c1)c1ccc(Cn2cc(Br)c([N+](=O)[O-])n2)o1,.,5.0,0.0,4.3,-8.1,-4.5,i,-6.9,
C#CCOCCOCCOCCNc1nc(N2CCN(C(=O)Cn3cc(CCCCN)nn3)CC2)nc(N2CCN(C(=O)[C@H](C)n3cc(CCC(=O)O)nn3)CC2)n1,-12.2,0.1,5.5,9.4,.,.,.,.,

# Retrieved one by one from the list above, two records:
SMILES,Yeast UUG start,MT1-MMP act inh,MT1-MMP act inh RFP,HIV Env fusion,CSC inhib,eIF4H FP inh,Rce1 inhib,PABP FP inh,others
O=C(CSc1ncn[nH]1)NN(c1ccccc1)c1ccccc1,.,1.7,7.9,-11.5,-13.8,2.4,i,3.0,
COC(=O)[C@@]1(C)[C@H]2C(=O)N(C)C(=O)[C@H]2[C@H]2CN=C(SCC(=O)c3ccccc3)N21,-35.1,7.9,8.0,0.8,.,.,.,.,

# (next part)
SMILES,Yeast UUG start,MT1-MMP act inh,MT1-MMP act inh RFP,HIV Env fusion,CSC inhib,eIF4H FP inh,Rce1 inhib,PABP FP inh,others
COC(=O)c1ccc(C)c(NC(=O)CCCN2C(=O)NC(C)(C)C2=O)c1,-15.7,2.2,-2.6,.,-8.4,.,.,.,
O=C1CC(c2ccc(Cl)c(Cl)c2)CC(O)=C1C=NCCN1CCNCC1 (configuration not stated),.,.,.,.,.,6.9,i,-1.1,
Cc1nn(CCc2n[nH]c(=S)n2-c2ccc(F)c(Cl)c2)c(C)c1[N+](=O)[O-],-8.7,6.1,7.1,7.3,-8.1,-4.1,i,-0.8,
O=C(CSc1nnc(-c2ccc(Cl)cc2)n1-c1ccc(Cl)cc1)N/N=C/c1ccccc1C(=O)O,.,.,.,.,-16.5,-1.0,i,7.5,
Cc1cc(C)cc(NC(=O)N2CCC(NC(=O)c3ccccc3C)CC2)c1,-11.7,2.7,1.4,.,-18.9,-1.7,i,0.9,
O=C(O)C1C(C(=O)Nc2ccc(Cl)cc2)C2C=CC1C21CC1 (configuration not stated),-11.6,3.7,0.3,-32.8,-14.1,-5.9,i,6.9,
Cc1c(C(=O)NCc2ccccc2)oc2ccc(S(=O)(=O)N3CCC4(CC3)OCCO4)cc12,-7.0,5.2,4.5,-65.2,8.2,3.3,i,-2.6,

# An excerpt; the hit share may differ from the screen's.
